A1 inh: inhibitors of the anti-apoptotic protein A1, read as caspase activation. MEF A1-2A-BIM cells, Caspase-Glo 3/7 luminescence, 3 h; percent of clofoctol response, vehicle zero. caspase activation, % (test concentration not listed). actives 0.066% (n = 330,000). AID 2462;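 active = over half of replicate activation scores above 10%, or exactly half above 10 with the replicate mean above 10; inconclusive = replicate mean below 10 yet half the replicates above 10; inactive = over half of replicates below 10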;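 also: wells of about 30 µL received 50 nL stock; many hits fall short of the cut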
UCH37 DUB inh: blocks the human deubiquitinase UCH37; purified proteasome/UCH37, Ub-AMC cleavage fluorescence; inhibition, % (test concentration not listed); actives 0.33% (n = 330,000); AID 588478;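 active = mean of two replicates above 20%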;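 also: 0% = compound-free wells with enzyme and 100% = wells lacking proteasome; stock transfer was 100 nL into about 20 µL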
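Material: human UCH37 enzyme supplied as purified proteasome complex. Measure: % inhibition of Ub-AMC cleavage fluorescence. Medium: pH 7.4 Tris-HCl (50 mM) with ovalbumin, ATP-MgCl2, DTT. Times: 30 min preincubation with enzyme, 25 min cleavage at room temperature. Detection: AMC fluorescence intensity at 355/460 nm.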
HNF4A DNA FP: change in binding of human HNF4 alpha to DNA; actives 0.3% (n = 360,000); AID 1224865; activity change, % at 10 µM; HNF4a-FITC DNA binding, fluorescence polarization, 1 h; in the data active = activity change above about 30%, passing the limit was not always enough;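 also: controls were the assay level and a saturating level of protein; the project sought stronger binding though the title names inhibitors; some compounds called inactive have numbers as strong as hits; positive values seem to mean higher polarization but the record does not say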
Target sequence (P41235 whole entry, looked up): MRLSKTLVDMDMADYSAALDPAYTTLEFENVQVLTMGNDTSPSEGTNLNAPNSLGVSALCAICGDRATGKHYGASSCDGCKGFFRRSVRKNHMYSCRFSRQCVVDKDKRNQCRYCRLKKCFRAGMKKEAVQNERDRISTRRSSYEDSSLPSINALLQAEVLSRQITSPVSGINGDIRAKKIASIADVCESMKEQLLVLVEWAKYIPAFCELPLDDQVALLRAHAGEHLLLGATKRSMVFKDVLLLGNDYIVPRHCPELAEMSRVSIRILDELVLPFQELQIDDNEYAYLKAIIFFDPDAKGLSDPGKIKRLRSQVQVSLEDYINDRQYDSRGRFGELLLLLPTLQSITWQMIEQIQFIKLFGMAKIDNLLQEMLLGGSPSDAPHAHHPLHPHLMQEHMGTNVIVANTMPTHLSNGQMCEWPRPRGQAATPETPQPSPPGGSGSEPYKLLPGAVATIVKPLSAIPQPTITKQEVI
Vif TR-FRET: HIV-1 Vif–A3G interaction blockers – biochemical, TR-FRET, GST-Vif 1-94, biotin-A3G peptide, dose response retest, primary screen (AID 1117319); TR-FRET GST-Vif / biotin-A3G peptide binding; higher % means a stronger effect; test concentration not given here; strong numbers were not always called active; inhibition, %, or IC50 in µM where a hit was titrated; actives 0.57% (n = 260,000);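 active = above the screen mean plus three standard deviations and confirmed in dose response; inconclusive = results disagree or hit not tested in dose response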;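 also: Vif residues 1-94 fused to GST binding biotinylated APOBEC3G peptide 110-148; 0% = full assay without inhibitor and 100% = GST in place of GST-Vif; retest series ran down from 100 µM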
B2AR ag: human beta-2 adrenergic receptor agonism by FAP; Am2.2-beta2AR cells, FAP receptor internalization, flow cytometry; reference of the scale not given here; P07550; AID 504454; actives 0.43% (n = 340,000); response, % (no concentration beside the values);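 active = response above a set limit, near 3 SD of response in nonfluorescent compounds, cut at about 42% in these data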;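 also: stock transfer was 100 nL into about 11 µL; a reference agonist was the positive control; negative values mostly stem from fluorescent compounds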
Target sequence (P07550 whole entry, looked up): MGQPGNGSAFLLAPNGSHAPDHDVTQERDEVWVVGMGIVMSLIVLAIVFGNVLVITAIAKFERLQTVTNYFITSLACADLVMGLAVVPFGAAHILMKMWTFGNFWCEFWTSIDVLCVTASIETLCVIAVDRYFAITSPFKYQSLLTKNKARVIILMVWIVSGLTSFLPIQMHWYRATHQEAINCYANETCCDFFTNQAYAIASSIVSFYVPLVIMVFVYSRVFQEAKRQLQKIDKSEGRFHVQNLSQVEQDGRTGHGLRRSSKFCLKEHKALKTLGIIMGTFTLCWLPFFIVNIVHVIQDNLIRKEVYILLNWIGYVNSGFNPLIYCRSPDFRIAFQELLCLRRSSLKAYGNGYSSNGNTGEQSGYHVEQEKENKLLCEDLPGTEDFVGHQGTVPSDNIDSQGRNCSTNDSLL
LANA-H2B inh: blocks KSHV LANA binding to histone H2A/H2B; Q9QR71; cell-free LANA-H2A/H2B peptide, fluorescence polarization; inhibition, % (concentration not given with the values); actives 0.6% (n = 320,000); AID 2629; in the data active = inhibition mostly above about 10%, no sharp cut-off; inactive = mostly below about 6.7%;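 also: stock transfer was 7.5 nL into about 10 µL; 0% = median of vehicle wells and 100% = median of positive control wells; one replicate is shown; the record names a cut of 25% in any replicate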
Ecoli growth: inhibitors of Escherichia coli growth | actives 0.21% (n = 330,000) | OD600, 23 h; stronger effect = lower value | OD600 absorbance (no concentration beside the values);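 active = OD600 absorbance below the run mean of sample wells minus 3.6 SD, in any replicate, cut at about 0.56 in these data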;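 also: stock transfer was 300 nL into about 60 µL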
The depositor's hits bear a star; ? = inconclusive; . = no result given. Compounds were not picked by outcome; any-hit rate near 2.1%.

Structure	A1 inh	UCH37 DUB inh	HNF4A DNA FP	Vif TR-FRET	B2AR ag	LANA-H2B inh	Ecoli growth
COc1ccccc1N1CCN(C(=O)C2CC(=O)N(c3ccccc3)C2)CC1 (stereo not drawn)	-0.6	3.3	-1.3	.	-1.2	-1.8	0.655
COc1ccc(C(CC(=O)NC(C)(C)C)n2cccc2)cc1 (stereo not drawn)	-0.1	5.1	0.8	19.7%	1.2	0.8	0.712
COCCNC(=O)Cn1nc(-c2ccc(C)cc2)ccc1=O	1.7	-6.0	1.1	.	13.0	2.2	0.669
O=C(CN1C(=O)COc2ccc(S(=O)(=O)N3CCOCC3)cc21)NCc1ccco1	-0.3	2.0	2.4	-2.6%	5.6	-1.9	0.746
Cc1cccc(-n2c(SCC(=O)NCc3ccco3)nc3ccccc3c2=O)c1	0.1	-1.3	4.4	-6.3%	-2.2	2.7	0.715
O=C(CNC(=O)c1ccco1)N/N=C/c1ccc(O)cc1O	1.0	.	-2.5	.	6.3	-0.9	.
CCCCN(C(=O)c1c(C)[nH]c(C(=O)OCC)c1C)c1ccccc1	0.5	0.7	1.5	-6.6%	-5.6	-1.2	0.708
O=C(NC(C(=O)c1ccccc1)N1CCCCCC1)c1ccco1 (stereo not drawn)	-0.6	-0.8	2.3	6.5%	3.6	-2.0	0.65
CCC(C)[C@H](NC(=O)NCc1ccccc1Cl)C(=O)OC (stereo partly drawn)	1.4	-1.1	1.8	0.1%	2.7	6.9	0.658
COc1cccc(CNc2ccc(F)c(Cl)c2)c1	-0.5	1.6	-4.7	3.7%	-3.3	4.8	0.689
Cc1cc(N=CC2=C(O)CC(C)(C)CC2=O)no1	-0.4	-1.6	2.1	4.6%	0.8	-1.1	0.74
C=CCn1c(COc2cccc3ccc(C)nc23)nnc1SCC(N)=O	-0.6	-9.0	1.1	5.6%	-0.6	4.3	0.72
CC/C(=N/NC(=O)CCC(=O)Nc1ccccc1OC)c1ccccc1	0.5	.	-1.3	.	-9.2	-1.6	.
O=C(NNC(=O)c1ccc(Br)s1)c1ccc(F)c(S(=O)(=O)N2CCOCC2)c1	1.5	3.0	4.3	20.1%	6.6	-0.3	0.668
CCN(CCCNC(=O)Cn1ncc2c([nH]c3ccc(C)cc32)c1=O)c1ccccc1	0.2	-4.3	0.8	0.8%	6.0	2.1	0.641
CC(=O)Oc1ccc(/C=N/NC(=S)Nc2ccccc2)cc1	-3.7	.	2.3	.	3.0	5.2	.
COC(=O)c1[nH]c2ccccc2c1NC(=O)C(C)N1CCN(C(=O)c2ccco2)CC1 (stereo not drawn)	0.1	-1.6	3.1	6.5%	-0.1	-1.1	0.684
Cc1cccc(C(=O)OCc2cnc(Cl)s2)c1	-1.2	2.9	0.3	9.4%	-23.8	2.7	0.709
Cc1cc(Br)ccc1NC(=O)C1CCN(C(=O)c2ccco2)CC1	0.3	-0.8	0.1	5.4%	-2.8	-0.7	0.635
COc1cccc(C(=O)OCC(=O)c2ccc(Br)s2)c1	-3.3	5.4	0.6	-26.0%	-0.5	-2.0	0.725
Cn1cc(CN2CCC(N3CCNC(=O)CC3)CC2)c(-c2ccccc2F)n1	0.1	0.2	1.3	.	3.4	0.7	0.676
O=C(Oc1ccc(-n2cnnn2)cc1)c1ccco1	-0.1	1.1	3.1	14.4%	11.2	-1.2	0.684
CCOc1ccc(CNC(=O)CCc2cn(Cc3ccccc3)c3ccccc23)cc1	.	2.6	-1.3	14.9%	-5.8	.	0.73
COc1cc(C2NC(=S)NC3=C2C(=O)CCC3)ccc1O (stereo not drawn)	0.4	9.0	-3.2	.	-3.5	-3.3	0.666
Cc1nn(-c2ccccc2)c2c1CC(=O)Nc1ccccc1-2	.	.	3.7	-0.7%	10.1	.	.
O=C(Nc1ccc(F)cc1)OCCOc1ccc([N+](=O)[O-])cc1	0.7	.	0.8	-7.5%	-5.0	2.1	.
CC(NC(=O)Nc1ccc2c(c1)OCO2)C1CCCO1 (stereo not drawn)	-0.2	2.2	-0.9	-2.4%	2.5	5.8	0.644
CC(=O)Nc1ccc(S(=O)(=O)NC2=C(N3CCN(c4ccc(F)cc4)CC3)C(=O)c3ccccc3C2=O)cc1	0.3	10.1	-1.5	18.2%	15.2	1.9	0.656
O=c1c(-c2ccccc2)c(O)nc2ccccn12	-0.2	-4.0	-3.3	-2.8%	5.9	-3.6	0.691
O=C(NC(O)C(=O)c1cccs1)c1cccnc1 (stereo not drawn)	0.2	0.7	-1.3	0.3%	1.5	-1.7	0.711
Cc1cc(C)n2nc(C(=O)OCC(=O)Nc3ccc(C)c(S(=O)(=O)N4CCOCC4)c3)nc2n1	-0.8	3.5	4.2	12.7%	2.5	0.5	0.7
CC(C)(C)N1CC(COc2ccccc2)OC1=O (stereo not drawn)	-0.4	4.9	2.8	20.8%	-16.9	-13.5	0.645
CCOC(=O)N1CCC(NC(=O)c2cccc3c2C(=O)N(Cc2cccnc2)C3)CC1	-0.1	3.6	1.4	-0.9%	5.7	2.1	0.719
O=C(CC1CCCC1)Nc1nc2ccccc2[nH]1	-2.3	1.0	-2.6	0.4%	-10.0	-1.8	0.684
O=C(CN1CCN(S(=O)(=O)N2CCOCC2)CC1)Nc1ccc(Cl)c(Cl)c1	0.8	1.8	0.2	.	6.3	-12.7	0.677
Cc1nn(CC2CCCCC2)c(N)c1-c1ccccc1	0.0	1.1	0.4	0.4%	-0.5	2.2	0.653
CCc1cccc(CC)c1NC(=S)N(CCN(C)C)C(C)c1cccnc1 (stereo not drawn)	0.3	4.0	-3.2	6.6%	-4.6	0.8	0.693
O=S(=O)(c1ccc(F)cc1)N1CCC(N2CCCCCC2)CC1	1.1	5.2	2.7	-6.3%	11.5	-0.6	0.714
CC(Sc1cccc[n+]1[O-])c1ccccc1 (stereo not drawn)	0.1	0.7	2.7	.	-4.4	-2.4	0.649
CCOc1ccc(NC(=O)N2CC(C)OC(C)C2)cc1 (stereo not drawn)	0.3	5.6	-1.1	-5.8%	4.5	-1.3	0.68
COc1cccc(C(=O)N2CCN(CCCc3ccccc3)CC2)c1OC	-3.4	-0.6	-2.7	18.6%	-4.0	-2.0	0.691
CN1CCN(C(=O)c2ccc3c(c2)N(Cc2cccc(Cl)c2)C(=O)c2ccccc2S3=O)CC1 (stereo not drawn)	0.4	3.7	2.1	-14.4%	3.0	-3.3	0.701
O=C(CN1CCN(c2ccccn2)CC1)NC(=O)NC1CCCCC1	0.0	-0.9	-1.9	18.9%	-3.1	3.1	0.716
CNC(=S)Nc1ccc2nc(C)c(C)nc2c1	-0.3	5.5	3.3	?	-2.0	3.2	0.683
N#CC1(NC(=O)COc2cccnc2[N+](=O)[O-])CCCCC1	0.4	3.3	-2.6	0.1%	-1.5	0.1	0.623
CCN(CC(=O)Nc1ccc(OC)c(OC)c1)S(=O)(=O)c1ccc(C)cc1	-0.1	3.2	-1.3	-5.6%	-4.2	-0.7	0.739
Cn1cc2ccc(N)cc2n1	.	-21.0	1.4	6.9%	-2.8	.	0.709
O=C(c1ccccc1)c1cnc(-c2ccccc2)s1	1.6	4.5	1.6	-1.0%	2.5	-2.6	0.712
COc1ccc(N2C(=O)c3ccccc3NC2(C)C)cc1	-4.7	-184.7	0.2	?	-1.5	0.6	0.709
C=CCSc1nnc(NC(=O)CSCc2c(C)noc2C)s1	0.8	1.7	2.4	-0.2%	1.0	3.6	0.716
CCn1c(=S)[nH]c2c(=O)n(C)c(=O)n(C)c21	.	3.3	1.6	7.7%	0.8	.	0.635
CCN(CC(=O)NC1CC1)S(=O)(=O)c1ccc(OC)cc1	0.9	1.8	2.1	.	2.8	-5.2	0.685
CS(=O)(=O)c1ccc(C(=O)NC2CCCc3ccccc32)cc1 (stereo not drawn)	-0.5	0.6	0.2	-8.6%	1.3	8.3	0.674
Cc1[nH]c2ccc(C(=O)OCC(=O)Nc3cccc(S(N)(=O)=O)c3)cc2c1C	-0.8	-6.4	5.5	-6.8%	6.3	-1.0	0.684
COc1ccc(-c2nnc(SCC(=O)NCc3ccco3)o2)cc1	-0.4	4.1	2.5	9.8%	0.1	-4.3	0.684
Cc1ccc2nc(NCCCO)[nH]c2c1	-0.4	1.4	-5.2	0.3%	-2.7	-0.2	0.654

Further results:
Structure	A1 inh	UCH37 DUB inh	HNF4A DNA FP	Vif TR-FRET	B2AR ag	LANA-H2B inh	Ecoli growth
Cc1ccccc1OCCC(=O)Nc1c(C)n(C)n(-c2ccccc2)c1=O	1.0	0.5	-0.1	0.7%	2.1	3.0	0.629
CCOC(=O)c1ccc(Nc2sc(C(=O)c3cccc([N+](=O)[O-])c3)c(N)c2C#N)cc1	-0.2	2.7	-0.8	3.0%	19.8	-9.8	0.717
Cc1ccc(-c2nc(C#N)c(N3CCC(C(N)=O)CC3)o2)cc1	?	-403.5	-0.4	.	-3.7	0.1	0.676
O=c1cc(Cl)[nH]n(-c2ccccc2)c1=O	0.4	-0.3	-3.7	-7.4%	2.2	-0.3	0.674
COc1cc(/C=N/N=C(\N)c2nonc2N)cc(OC)c1O	-1.4	.	-1.8	16.4%	-1.2	0.7	.
COc1ccccc1/C=C/C(=O)NC(=S)NCC1CCCO1 (stereo not drawn)	-1.1	.	-0.1	1.9%	-1.9	2.3	.
COc1ccc(CCNC(=O)c2cc3c(=O)n4ccccc4nc3n(CCN3CCOCC3)c2=N)cc1	-0.9	-43.7	3.1	.	-9.5	-0.9	0.665
COc1ccccc1NC(=S)NC1CCCCC1	-0.8	-1.5	0.9	-10.8%	-1.1	5.1	0.696
CCOC(=O)C1CCCN(C2CC(=O)N(c3cccc(C)c3)C2=O)C1 (stereo not drawn)	0.9	1.6	3.2	4.3%	-5.9	2.4	0.712
CCOC(=O)C(C)Sc1nc(N)c(NC(=O)c2ccc(OC)c(OC)c2)c(=O)[nH]1 (stereo not drawn)	1.4	1.6	-1.5	-3.6%	-4.8	-0.3	0.691
COc1cc(OC)cc(-c2nn[nH]n2)c1	0.2	0.8	0.3	-8.1%	26.8	4.6	0.692
COc1ccc(CCNC(=O)C2CC(c3ccccc3C(F)(F)F)=NO2)cc1 (stereo not drawn)	0.3	2.8	-3.7	-2.0%	-2.5	1.4	0.682
CO/N=C/C(=N\Nc1ccc(OC)cc1)C(=O)c1ccc(OC)cc1	-0.2	.	-1.9	63.2%	0.5	-0.7	.
CNC(=O)CSc1nc(-c2ccccc2)c(-c2ccccc2)[nH]1	0.0	-1.3	2.5	-5.3%	-7.7	-2.5	0.679
O=C(Cc1c(Cl)cccc1Cl)OCC(=O)N1CCOCC1	-0.1	3.5	-5.3	.	11.4	-3.6	0.724
S=C(NCCc1ccccc1)N/N=C/c1ccc(Cl)cc1	0.2	.	6.1	-4.7%	-2.0	1.4	.
Cc1cc(N2CC(C)OC(C)C2)n2cc(-c3ccccc3)nc2n1 (stereo not drawn)	-1.0	-167.4	2.7	2.3%	-17.6	2.1	0.652
O=C(Cn1cnc2ccccc2c1=O)N/N=C/c1ccc(Br)cc1	-0.1	.	2.0	6.9%	-13.3	-0.6	.
O=C(CSc1nnc(Nc2ccccc2)s1)Nc1ccc(S(=O)(=O)N2CCOCC2)cc1	-1.2	-2.0	0.5	-5.1%	-2.8	-5.6	0.762
COC(=O)c1ccccc1N=C(SC)N(C)C	-0.6	-1.7	-3.6	-4.8%	-3.6	2.9	0.657
CC(C)NC(=O)CSc1nc2sccc2c(=O)n1-c1ccccc1	1.7	5.2	0.8	.	-16.4	2.2	0.717
